# Cruzain Triton: qHTS Assay for Promiscuous and Specific Inhibitors of Cruzain (with detergent). Cruzipain (Trypanosoma cruzi), P25779. AID 1478, 2009. 0.43% of 200,000 active. Potency, µM, for the others: max response, negative = inhibition, most hits filed as inhibitors. purified cruzain, Z-FR-AMC fluorescence, 0.01% Triton; active = well fitted curve in the direction sought with a large enough effect; inconclusive = small, poorly fitted or top-dose-only effect, or another doubt; inactive = no such curve, though single readings can be large; an effect the other way counts as inactive or inconclusive;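 also: plate controls were neutral wells for no effect and buffer without enzyme for full effect; nearly all actives have a fitted effect of over 40% in size; top concentration of the series not given in the record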
# Target sequence (P25779 123-467 limits assumed): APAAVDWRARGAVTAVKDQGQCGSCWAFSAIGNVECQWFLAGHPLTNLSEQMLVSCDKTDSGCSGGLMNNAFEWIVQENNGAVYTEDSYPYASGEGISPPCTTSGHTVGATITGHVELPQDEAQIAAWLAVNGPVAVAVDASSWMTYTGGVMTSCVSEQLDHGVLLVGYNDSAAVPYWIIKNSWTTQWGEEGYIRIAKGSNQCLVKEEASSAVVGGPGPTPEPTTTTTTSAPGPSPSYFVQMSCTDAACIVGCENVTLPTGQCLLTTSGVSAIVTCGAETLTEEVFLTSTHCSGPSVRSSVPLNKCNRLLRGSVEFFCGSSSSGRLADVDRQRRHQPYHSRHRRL
#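 Cruzain (1.5 nM) preincubated 15 min at RT with compound in 100 mM sodium acetate pH 5.5, 5 mM DTT, 0.01% Triton X-100. Reaction started with 2 uM Z-FR-AMC; AMC fluorescence (ex 360/em 450 nm) change over 60 s gave rate.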
# LASV entry inh: qHTS for Inhibitors of binding or entry into cells for Lassa Virus | Potency, µM (series often up to 37.9 µM), inactives show at the highest dose activity change, negative = inhibition, usual class: inhibitors | Lassa virus pseudotype entry inhibition, cell reporter; control for the full effect not named in the record | 1.2% of 300,000 active; active means well fitted inhibition curve with a large enough effect; inconclusive means small, poorly fitted or top-dose-only effect, or effect the other way; inactive means flat fitted curve, though single readings scatter; tested in HEK293 cells; also: % is scaled to controls: 0 for no effect and ±100 for the full control effect; nearly all actives have a fitted effect of over 50% in size; luciferase read-out
# SARS PLP yeast: qHTS of Yeast-based Assay for SARS-CoV PLP; S. cerevisiae expressing SARS-CoV PLpro, growth rescue; control for the full effect not named in the record; Potency, µM (doses to about 32.9 µM), without a hit: at the highest dose activity, positive = growth rescue; 0.19% of 330,000 active; also: 0% is about no effect; nearly all actives have a fitted effect of over 55% in size; growth read by luminescence after 48 h
# NS1 inh: qHTS Assay for Inhibitors of Influenza NS1 Protein Function | S. cerevisiae slowed by influenza A NS1, growth recovery by OD600 | Potency, µM (titrated, usually from 46.1 µM), inactives show at the highest dose activity, positive = more growth | 0.4% of 270,000 active; also: actives are rising curves; nearly all actives have a fitted effect of over 50% in size
#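 Compounds were scored for reversing the slow growth caused by influenza A NS1 in S. cerevisiae, measured by optical density at 600 nm. Assay medium contained 2% galactose at pH 6.0; NS1-free yeast of the same strain were the positive control.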
# RE007 growth inh: qHTS Assay for Inhibitors of the HIV-1 protein Vpr. AID 651644, 2012. S. pombe RE007 Vpr strain, BacTiter-Glo ATP luminescence, 24 h; control for the full effect not named in the record. 0.21% of 360,000 active. Potency, µM (series often up to 92.2 µM), for inactives: top-dose activity change, negative = less growth; active = well fitted falling curve with a large enough effect; inconclusive = small, poorly fitted or top-dose-only effect; inactive = no such curve, though single readings can be large or run the other way;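 also: % is scaled to controls: 0 for no effect and ±100 for the full control effect; nearly all actives have a fitted effect of over 50% in size; the assay follows cell death caused by Vpr and the record does not say whether a fall means rescue or toxicity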
#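 Fission yeast RE007 carrying one integrated HIV-1 vpr copy, seeded at OD 0.01 in PMG+AL medium with 23 nL pinned compound. Grown 24 h at 30 degrees; viability read by BacTiter-Glo luminescence after 5 min.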
# Cruzain inh noDet: qHTS Assay for Promiscuous and Specific Inhibitors of Cruzain (without detergent). 2.3% of 200,000 active. purified cruzain, Z-FR-AMC fluorescence, no detergent. AID 1476, 2009. Potency, µM, without a hit: max response, negative = inhibition, actives largely listed as inhibitors; active = well fitted curve in the direction sought with a large enough effect; inconclusive = small, poorly fitted or top-dose-only effect, or another doubt; inactive = no such curve, though single readings can be large; an effect the other way counts as inactive or inconclusive;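 also: plate controls were enzyme without inhibitor for no effect and buffer without enzyme for full effect; nearly all actives have a fitted effect of over 40% in size; top concentration of the series not given in the record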
#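 Detergent-free condition (0.00005% Triton X-100) in acetate buffer pH 5.5 with DTT. 1.5 nM enzyme and compound were pre-mixed 15 min, then 2 uM Z-FR-AMC substrate added; reaction progress from fluorescence change between first and third reads (60 s).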
# Marburg entry inh: qHTS for inhibitors of binding or entry into cells for Marburg Virus; AID 540276, 2011; Potency, µM (highest dose often 37.8 µM), without a hit: top-dose activity change, negative = inhibition, hits mostly inhibitors; Marburg virus pseudotyped entry inhibition, cell reporter; control for the full effect not named in the record; about a third of the inactives were read at about 46 µM; 1.8% of 300,000 active; active = well fitted inhibition curve with a large enough effect; inconclusive = small, poorly fitted or top-dose-only effect, or effect the other way; inactive = flat fitted curve, though single readings scatter; tested in HEK293 cells; about a fifth of its hits are not listed in these tables; also: % is scaled to controls: 0 for no effect and ±100 for the full control effect; luciferase read-out
# 2A StopGo: High Throughput Screening for Foot and Mouth Disease Virus Antivirals. human cells with a luciferase reporter of 2A StopGo recoding; control for the full effect not named in the record. Potency, µM (titrated, usually from 57.9 µM), for inactives: top-dose signal change, negative = less light. 1.2% of 410,000 active. AID 1159524, 2015; active = well fitted falling curve with a large enough effect; inconclusive = small, poorly fitted or top-dose-only effect; inactive = no such curve, though single readings can be large or run the other way; tested in HEK293T cells; also: % is scaled to controls: 0 for no effect and ±100 for the full control effect; nearly all actives have a fitted effect of over 45% in size; luciferase light after 4 h
# The depositor's hits bear a star; ? = inconclusive; . = no result given; [ ] = another dose, or the depositor's remark. Unless noted, calls follow the shape of the dose curve; as a rule, active means well fitted rising curve with a large enough effect; inconclusive means small, poorly fitted or top-dose-only effect; inactive means no such curve, though single readings can be large or run the other way. Potency is read from the fitted curve at half-maximal effect. Outcome played no part in choosing rows, and some 4.6% of all compounds hit somewhere here.
# Codes: A = Cruzain Triton; B = LASV entry inh; C = SARS PLP yeast; D = NS1 inh; E = RE007 growth inh; F = Cruzain inh noDet; G = Marburg entry inh; H = 2A StopGo
Cc1ccc(N2C(=O)CC(Cc3cccc(C)c3)C2=O)cc1 (stereo not given)
  A: . | B: 9% | C: 0% | D: 2% | E: -26% | F: . | G: -2% | H: -5%

CCN1C(=O)C(CC(=O)Nc2ccccc2Cl)N(NC(=O)c2cccc(F)c2)C1=S (stereo not given)
  A: . | B: -8% | C: -7% | D: -24% | E: -22% | F: . | G: -11% | H: -8%

C#CCOCCOCCOCCNc1nc(N2CCN(C(=O)[C@H]([C@@H](C)CC)n3cc([C@@H](N)Cc4ccc(O)cc4)nn3)CC2)nc(N2CCN(C(=O)[C@H](Cc3ccc(O)cc3)n3cc([C@@H](N)CC(C)C)nn3)CC2)n1
  A: . | B: . | C: 0% | D: 1% | E: 10% | F: . | G: . | H: -2%

O=C(Nc1cccc2ccccc12)c1ccccc1Cl
  A: . | B: . | C: 2% | D: 3% | E: -5% | F: . | G: . | H: 22%

O=C(COC(=O)c1cc(S(=O)(=O)Nc2ccccc2Cl)ccc1O)Nc1ccc(F)c(F)c1F
  A: . | B: -1%[46.1 µM] | C: 0% | D: . | E: 3% | F: . | G: -10%[46.1 µM] | H: -2%

COc1cccc(NC(=O)[C@H](Cc2c[nH]c3ccccc23)NC(=O)[C@@H]2Cc3ccccc3CN2)c1
  A: . | B: . | C: 2% | D: 8% | E: -10% | F: . | G: . | H: -3%

COc1cc(/C=C2/C(=N)N3C=CSC3=NC2=O)ccc1OCCCOc1cc(C)ccc1C
  A: -1.8% | B: ? | C: -4% | D: 2% | E: -3% | F: 0% | G: -26% | H: ?

CC(C)CC1Nc2ccc(C(=O)NCCCN3CCOCC3)cc2NC1=O (stereo not given)
  A: . | B: 6%[46.1 µM] | C: 3% | D: -12% | E: -7% | F: . | G: 1%[46.1 µM] | H: 30%

Clc1cccc(OCCCCN2CCCCC2)c1
  A: . | B: . | C: 0% | D: -15% | E: -10% | F: . | G: . | H: -4%

CC1(C)O[C@H]2[C@@H](O1)[C@@H](C(=O)Nc1ccccc1C(F)(F)F)O[C@@H]1OC(C)(C)O[C@@H]12
  A: -2.5% | B: ? | C: . | D: . | E: . | F: 15% | G: -13%[46.1 µM] | H: -15%

COCCn1c(N2CCN(c3ccccc3)CC2)nc2c1c(=O)n(C)c(=O)n2C
  A: . | B: . | C: 0% | D: -3% | E: 1% | F: . | G: 0%[46.1 µM] | H: ?

Cc1cnc(C(=O)NCCc2ccc(Cl)cc2)cn1
  A: . | B: . | C: -4% | D: -5% | E: -7% | F: . | G: . | H: 33%[activator]

O=C(CSC1=NCCS1)NCc1ccco1
  A: -2.9% | B: -9% | C: 9% | D: 6% | E: 5% | F: -4% | G: 2% | H: -20%

CC(=O)Nc1ccc(S(=O)(=O)N2CCN(C(=O)c3ccco3)CC2)cc1
  A: . | B: . | C: 1% | D: 0% | E: 7% | F: . | G: . | H: -17%

COc1ccc(NC(=O)CCCNC(=O)Cn2cnc3sc(C)c(C)c3c2=O)c(OC)c1
  A: . | B: 5% | C: 8% | D: 5% | E: 10% | F: . | G: 24%[46.1 µM] | H: -22%

CN(C)S(=O)(=O)c1cc(NC(=O)CN2CCNC(=O)C2)ccc1Cl
  A: 0.4% | B: 2% | C: 10% | D: -1% | E: 4% | F: -3% | G: ? | H: -10%

# Molecules above containing a furan ring, fused or not:
# Codes: A = Cruzain Triton; B = LASV entry inh; C = SARS PLP yeast; D = NS1 inh; E = RE007 growth inh; F = Cruzain inh noDet; G = Marburg entry inh; H = 2A StopGo
O=C(CSC1=NCCS1)NCc1ccco1
  A: -2.9% | B: -9% | C: 9% | D: 6% | E: 5% | F: -4% | G: 2% | H: -20%

CC(=O)Nc1ccc(S(=O)(=O)N2CCN(C(=O)c3ccco3)CC2)cc1
  A: . | B: . | C: 1% | D: 0% | E: 7% | F: . | G: . | H: -17%

# Structures shown so far that contain nitrogen in an aromatic ring:
# Codes: A = Cruzain Triton; B = LASV entry inh; C = SARS PLP yeast; D = NS1 inh; E = RE007 growth inh; F = Cruzain inh noDet; G = Marburg entry inh; H = 2A StopGo
C#CCOCCOCCOCCNc1nc(N2CCN(C(=O)[C@H]([C@@H](C)CC)n3cc([C@@H](N)Cc4ccc(O)cc4)nn3)CC2)nc(N2CCN(C(=O)[C@H](Cc3ccc(O)cc3)n3cc([C@@H](N)CC(C)C)nn3)CC2)n1
  A: . | B: . | C: 0% | D: 1% | E: 10% | F: . | G: . | H: -2%

COc1cccc(NC(=O)[C@H](Cc2c[nH]c3ccccc23)NC(=O)[C@@H]2Cc3ccccc3CN2)c1
  A: . | B: . | C: 2% | D: 8% | E: -10% | F: . | G: . | H: -3%

COCCn1c(N2CCN(c3ccccc3)CC2)nc2c1c(=O)n(C)c(=O)n2C
  A: . | B: . | C: 0% | D: -3% | E: 1% | F: . | G: 0%[46.1 µM] | H: ?

Cc1cnc(C(=O)NCCc2ccc(Cl)cc2)cn1
  A: . | B: . | C: -4% | D: -5% | E: -7% | F: . | G: . | H: 33%[activator]

COc1ccc(NC(=O)CCCNC(=O)Cn2cnc3sc(C)c(C)c3c2=O)c(OC)c1
  A: . | B: 5% | C: 8% | D: 5% | E: 10% | F: . | G: 24%[46.1 µM] | H: -22%
